gsp agonist – agonists of gsp mutant (McCune-Albright syndrome) | AID 624287 | Potency, µM (series often up to 76.9 µM), without a hit: at the top dose activation (cAMP increase), usual class: activators | gsp mutant cells, cAMP HTRF, 30 min; control for the full effect not named in the record | 0.13% of 340,000 active; active = well fitted activation curve with a large enough effect; inconclusive = small, poorly fitted or top-dose-only effect, or another doubt; inactive = no such curve, though single readings can be large or run the other way; cell line not stated here;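 also: phosphodiesterase inhibitor Ro 20-1724 added with compounds to block cAMP breakdown; potency is read from the fitted curve at half-maximal effect; nearly all actives have a fitted effect of over 60% in size; about a fifth of the inactives were tested at one dose only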
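Cells in DMEM/10% FBS with G418 were pretreated with compounds in DMSO plus […] (300 uM stock) for 30 min at 37C. cAMP was measured by HTRF (cAMP-d2 plus anti-cAMP antibody-K) after 30 min at room temperature.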
CtBP-E1A inh – inhibitors of CtBP/E1A interaction; AlphaScreen GST-E1A/His-CtBP binding, 1536-well; stronger effect = lower value; control for the full effect not named in the record; 0.49% of 340,000 active; activity change, % (test concentration not listed); in the data active means activity change below about -65%; inconclusive means about -30% to -65%; inactive means above about -30%; also: % is scaled to controls: 0 for no effect and ±100 for the full control effect; compound concentration not given in the record
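GST-E1A and His-tagged CtBP (125 nM each as 5X stock) were preincubated with pin-transferred compound for 2 h at 37 °C in the dark, then glutathione donor and nickel acceptor beads were added for 1 h before AlphaScreen reading.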
D2 ag – human D2 receptor agonism in beta-arrestin assay. P14416. activation, % (test concentration not listed). 0.084% of 360,000 active. DiscoveRx PathHunter D2 beta-arrestin, luminescence, 90 min; 100% = 57 uM dopamine signal; in the data active = activation above about 40%; inconclusive = about 15% to 40%; inactive = below about 15%; also: compound concentration not given in the record; the text of the record calls up to 30% inactive
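Agonist mode: compounds alone added to overnight-plated D2 PathHunter cells for 90 min at 37 C, with 57 uM final dopamine (EC100) defining full response. Beta-arrestin recruitment detected by chemiluminescent reagent, read after 1 h at ambient temperature.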
Six1-Eya2 blk – inhibitors of human Six1/Eya2 interaction. AlphaScreen GST-Six1/His-Eya2 binding, biochemical; stronger effect = lower value; control for the full effect not named in the record. AID 651725. Q15475+O00167. 0.56% of 360,000 active. activity change, % (concentration not given with the values); in the data active = activity change below about -65%; inconclusive = about -30% to -65%; inactive = above about -30%; also: % is scaled to controls: 0 for no effect and ±100 for the full control effect
Target sequence (O00167 whole entry, looked up): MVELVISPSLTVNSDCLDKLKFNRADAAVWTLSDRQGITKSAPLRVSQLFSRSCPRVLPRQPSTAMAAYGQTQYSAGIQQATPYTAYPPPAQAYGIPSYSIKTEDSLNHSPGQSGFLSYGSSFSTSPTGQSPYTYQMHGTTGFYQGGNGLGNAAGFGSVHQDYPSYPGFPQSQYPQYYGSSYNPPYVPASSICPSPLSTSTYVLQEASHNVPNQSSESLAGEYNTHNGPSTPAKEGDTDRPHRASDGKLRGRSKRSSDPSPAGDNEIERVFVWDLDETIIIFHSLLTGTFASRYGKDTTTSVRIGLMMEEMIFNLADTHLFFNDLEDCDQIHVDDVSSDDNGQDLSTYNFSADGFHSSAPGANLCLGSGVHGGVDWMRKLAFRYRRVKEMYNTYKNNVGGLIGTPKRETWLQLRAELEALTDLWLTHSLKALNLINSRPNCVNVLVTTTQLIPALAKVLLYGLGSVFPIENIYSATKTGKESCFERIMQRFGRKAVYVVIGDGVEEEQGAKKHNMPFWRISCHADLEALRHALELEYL
Target sequence (Q15475 whole entry, looked up): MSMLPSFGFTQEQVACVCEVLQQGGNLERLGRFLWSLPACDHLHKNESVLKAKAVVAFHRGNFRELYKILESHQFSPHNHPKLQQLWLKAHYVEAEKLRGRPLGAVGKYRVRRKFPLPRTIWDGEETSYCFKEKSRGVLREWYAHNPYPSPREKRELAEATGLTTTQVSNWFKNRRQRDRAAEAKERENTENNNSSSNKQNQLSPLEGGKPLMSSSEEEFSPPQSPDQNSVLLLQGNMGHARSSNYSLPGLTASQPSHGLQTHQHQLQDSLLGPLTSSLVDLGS
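Six1/Eya2 binding was read as AlphaScreen signal after compounds were pinned into GST-Six1 plus His-tagged Eya2 (5X stock 250/500 nM) in pH 8.0 Tris/NaCl/TCEP buffer, beads added, then incubated 1 h, 37 C, dark.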
gsp antag – gsp mutant antagonism; Potency, µM (titrated, usually from 76.9 µM), for inactives: top-dose activity change, negative = inhibition, actives largely listed as inhibitors; 0.4% of 340,000 active; gsp-mutant cells, cAMP HTRF, 30 min; control for the full effect not named in the record; AID 624288; active = falling curve of any shape with a large fitted effect; inconclusive = falling curve, mostly with a smaller effect; inactive = flat or rising curve; cell line not stated here;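 also: intracellular cAMP measured with PDE inhibitor Ro 20-1724 present during compound exposure; potency is read from the fitted curve at half-maximal effect; % is scaled to controls: 0 for no effect and ±100 for the full control effect; nearly all actives have a fitted effect of over 65% in size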
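HTRF cAMP read-out (cAMP-d2 plus anti-cAMP antibody-K in lysis buffer, 30 min RT). Before lysis, cells are exposed to compounds with […] for 30 min at 37C in DPBS containing Ca/Mg, BSA and Tween 20.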
D2 potentiator – potentiates the human D2 dopamine receptor allosterically; DiscoveRx D2 beta-arrestin cells, luminescence, 90 min; 100% = 57 uM dopamine signal; potentiation, % (concentration not given with the values); 0.23% of 360,000 active; active = potentiation of 50% or more; inconclusive = 30% to 50%; inactive = 30% or less;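 also: compound concentration not given in the record; tested on top of an EC20 dose of dopamine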
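PathHunter beta-arrestin assay in DiscoveRx D2 cells. Compounds were added with an EC20 of dopamine (50 nM final) for 90 min at 37 deg C. Luminescence was read 1 h after detection reagent, with 57 uM dopamine as the EC100 control.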
* hit, by the source's call; [ ] = dose if it differs, or a comment. Not a hit list. About 1.4% of those tested had a hit in this group.

Cc1nnc(SCC(=O)N2CCC(C(N)=O)CC2)s1 was read as gsp agonist 29%, CtBP-E1A inh -8, D2 ag -3.5, Six1-Eya2 blk 9, gsp antag 20% and D2 potentiator -3.
Screening Cc1noc2ncnc(Sc3ccc(Br)cc3)c12 returned gsp agonist -5%[15.4 µM], CtBP-E1A inh 1, D2 ag -4.6, Six1-Eya2 blk 0, gsp antag -4% and D2 potentiator -6.
For CN(C)c1ccc(C(=O)NN2C(=O)c3ccccc3C2=O)cc1 the results were gsp agonist -11%[15.4 µM], CtBP-E1A inh -4, D2 ag -0.1, Six1-Eya2 blk 6, gsp antag 14% and D2 potentiator -2.
O=C(NC(=S)NCCCN1CCOCC1)c1cccc2ccccc12 was read as gsp agonist -1%[15.4 µM], CtBP-E1A inh -22, D2 ag -11, Six1-Eya2 blk -25, gsp antag 5% and D2 potentiator -1.
`CCOc1c(C)cc2[nH]c(CCC(=O)O)nc2c1C` gave gsp agonist -19%, CtBP-E1A inh 0, D2 ag -0.7, Six1-Eya2 blk 9, gsp antag 10% and D2 potentiator -2.
CCC(=O)c1ccc(N2CCC(C)CC2)c(F)c1 was read as gsp agonist 21%[15.4 µM], CtBP-E1A inh 16, D2 ag -4.0, Six1-Eya2 blk 22, gsp antag 1% and D2 potentiator 1.
Screening Cn1c(=O)c2c(nc(Br)n2CC(=O)c2cccs2)n(C)c1=O returned gsp agonist 4%, CtBP-E1A inh 0, D2 ag -3.1, Six1-Eya2 blk -3, gsp antag 8% and D2 potentiator 0.
For CCS(=O)(=O)Nc1cccc(-c2nc3cccnc3s2)c1 the results were gsp agonist inconclusive, CtBP-E1A inh -1, D2 ag -1.4, Six1-Eya2 blk -12, gsp antag 13% and D2 potentiator -4.
Screening COc1ccc2cc(C3CC(c4cccs4)=NN3S(C)(=O)=O)c(Cl)nc2c1 (stereo not given) returned gsp agonist 2%, CtBP-E1A inh -8, D2 ag 2.3, Six1-Eya2 blk -8, gsp antag -11% and D2 potentiator 2.
`OCCNCCSc1nc(C2CCCCC2)n(-c2ccccc2Cl)n1` gave gsp agonist -10%[15.4 µM], CtBP-E1A inh 1, D2 ag -3.2, Six1-Eya2 blk 5, gsp antag 12% and D2 potentiator -9.
Screening O=C(N/N=C/c1ccccc1C(=O)O)c1cccc(S(=O)(=O)N2CCOCC2)c1 returned gsp agonist -4%, CtBP-E1A inh 7, D2 ag -1.2, Six1-Eya2 blk -1, gsp antag 9% and D2 potentiator 1.
For CCC(C)(C)C1CCC2(CC1)NC(=O)N(CC(=O)N(C)Cc1ccc(OC(F)F)cc1)C2=O (stereo not given) the results were gsp agonist -12%[15.4 µM], CtBP-E1A inh 5, D2 ag 6.8, Six1-Eya2 blk 9, gsp antag -8% and D2 potentiator -5.
`COc1ccc(NC(=O)N(C2CCCCC2)C(C)c2cccnc2)c(OC)c1` (stereo not given) gave gsp agonist -14%, CtBP-E1A inh -3, D2 ag -4.0, Six1-Eya2 blk -6, gsp antag -11% and D2 potentiator -14.
For CCOC(=O)C1=C(C)C(c2cccc(Oc3ccccc3)c2)NC(=S)N1 (stereo not given) the results were gsp agonist 10%[15.4 µM], CtBP-E1A inh -23, D2 ag 2.2, Six1-Eya2 blk -5, gsp antag -13% and D2 potentiator -6.
For CCOc1ccc(S(=O)(=O)N2CCN(C(=O)c3cc(-c4ccccc4)nn3-c3ccccc3)CC2)cc1 the results were gsp agonist -19%, CtBP-E1A inh -24, D2 ag 2.5, Six1-Eya2 blk 11, gsp antag -9% and D2 potentiator 5.
`COc1cc(S(=O)(=O)NCCOC23CC4CC(CC(C4)C2)C3)c(OC)cc1Cl` gave gsp agonist -1%, CtBP-E1A inh 5, D2 ag -3.2, Six1-Eya2 blk -2, gsp antag inconclusive and D2 potentiator -15.
For O=C(c1cc(N2C(=O)C3C4CCC(C4)C3C2=O)ccc1Cl)N1CCN(c2ccccc2F)CC1 (stereo not given) the results were gsp agonist inconclusive, CtBP-E1A inh 11, D2 ag 0.5, Six1-Eya2 blk 4, gsp antag -17% and D2 potentiator -3.
Cc1ccc(C(=O)N/C(=C\c2cccs2)C(=O)NCc2cccnc2)cc1 was read as gsp agonist -25%, CtBP-E1A inh 7, D2 ag -6.7, Six1-Eya2 blk 2, gsp antag 5% and D2 potentiator -1.
Screening COc1ccc(NC(=O)N(C)C[C@H]2Oc3ccc(NS(=O)(=O)c4ccc(F)cc4)cc3C(=O)N([C@H](C)CO)C[C@@H]2C)cc1 returned gsp agonist -3%, CtBP-E1A inh -7, D2 ag -7.1, Six1-Eya2 blk -6, gsp antag 6% and D2 potentiator -5.
`Oc1c(Br)cc(Br)cc1C=Nc1ccc2[nH]ncc2c1` gave gsp agonist 23%, CtBP-E1A inh -14, D2 ag -6.9, Six1-Eya2 blk -27, gsp antag inconclusive and D2 potentiator -18.
CCOC(=O)c1sc(NC(=O)CSc2n[nH]c(-c3ccc(Cl)cc3Cl)n2)c(C#N)c1C was read as gsp agonist -34%[inhibitor], CtBP-E1A inh 1, D2 ag -1.4, Six1-Eya2 blk -1, gsp antag -17% and D2 potentiator -3.
For CCOc1ccc2nc(NC(=O)Cn3c(C)csc3=O)sc2c1 the results were gsp agonist -17%, CtBP-E1A inh -6, D2 ag -1.6, Six1-Eya2 blk -13, gsp antag 6% and D2 potentiator 6.
For C=CCOC(=O)C1=C(C)NC(=O)NC1c1cc(Cl)cc(Cl)c1OC (stereo not given) the results were gsp agonist -42%[inhibitor], D2 ag 6.9, Six1-Eya2 blk -6, gsp antag -2% and D2 potentiator 1.
COc1ccc([N+](=O)[O-])cc1N1C(=O)c2cccnc2C1=O was read as gsp agonist 6%, CtBP-E1A inh -18, D2 ag -6.5, Six1-Eya2 blk -13, gsp antag -7% and D2 potentiator -3.
Screening CC(=NNC(=O)c1ccncc1)c1cccc(Br)c1 returned gsp agonist -3%, CtBP-E1A inh 2, D2 ag -0.9, Six1-Eya2 blk -5, gsp antag 1% and D2 potentiator -16.
COc1ccc(C(=O)c2ccc3oc(-c4ccc(OC)cc4)c(C#CCCO)c3c2)cc1 was read as CtBP-E1A inh 0, D2 ag -0.9, Six1-Eya2 blk 3, gsp antag -9% and D2 potentiator -17.
For CC(=O)C1=C(O)C(=O)N(CCCN2CCOCC2)C1c1ccccc1[N+](=O)[O-] (stereo not given) the results were gsp agonist 13%[15.4 µM], CtBP-E1A inh -2, D2 ag 8.7, Six1-Eya2 blk -5, gsp antag -8% and D2 potentiator 18.
`Cc1cccc(NC(=O)COc2ccc(Br)cc2)n1` gave gsp agonist -42%[inhibitor], CtBP-E1A inh 1, D2 ag 1.3, Six1-Eya2 blk 2, gsp antag -9% and D2 potentiator -10.
For COc1cc(OC)cc(C(=O)NCc2ccc(-n3cccc3)cc2)c1 the results were gsp agonist -10%, CtBP-E1A inh -12, D2 ag 2.6, Six1-Eya2 blk -9, gsp antag 0% and D2 potentiator -26.
`COc1cc(C)nc(N2CCCC(C(=O)Nc3cccc(Cl)c3Cl)C2)n1` (stereo not given) gave gsp agonist -18%, CtBP-E1A inh 5, D2 ag 0.2, Six1-Eya2 blk -1, gsp antag 2% and D2 potentiator -3.
O=CN1CCN(C(C(=O)NC2CCCCC2)c2cc3c(cc2[N+](=O)[O-])OCO3)CC1 (stereo not given) was read as gsp agonist 17%[15.4 µM], CtBP-E1A inh 9, D2 ag -15, Six1-Eya2 blk -11, gsp antag 3% and D2 potentiator 5.
Fc1cc(F)c(F)c(SCCc2ccncc2)c1F was read as gsp agonist -14%, CtBP-E1A inh -8, D2 ag -1.6, Six1-Eya2 blk 6, gsp antag -5% and D2 potentiator -10.
For CN1CCN(CC#CCC2(O)c3ccccc3-c3ccccc32)CC1 the results were gsp agonist 22%, CtBP-E1A inh 9, D2 ag -3.9, Six1-Eya2 blk 2, gsp antag 6% and D2 potentiator -10.
For CCC(CO)Oc1cc(NCc2ccccc2C)c2ncn(C(C)C)c2c1 (stereo not given) the results were CtBP-E1A inh 0, D2 ag 4.7, Six1-Eya2 blk -5, gsp antag 3% and D2 potentiator -22.
Screening CC(C)(C)c1ccc(S(=O)(=O)NC(Cc2ccccc2)C(=O)O)cc1 (stereo not given) returned gsp agonist 5%, CtBP-E1A inh 9, D2 ag -2.1, Six1-Eya2 blk 2, gsp antag 5% and D2 potentiator -6.
For CCOc1ccc(NC(=O)CN2CCN(CC(=O)Nc3ccc(F)cc3)CC2)cc1 the results were gsp agonist -57%[inhibitor], CtBP-E1A inh 7, D2 ag 0.8, Six1-Eya2 blk -2, gsp antag -4% and D2 potentiator -2.
`O=C(CSc1nccc(=O)[nH]1)Nc1ccc(S(=O)(=O)N2CCOCC2)cc1` gave gsp agonist 2%, CtBP-E1A inh 7, D2 ag -0.7, Six1-Eya2 blk 5, gsp antag 2% and D2 potentiator -2.
For CN(CC(=O)NC(=O)Nc1ccccc1F)Cc1ccccc1 the results were gsp agonist 16%[15.4 µM], CtBP-E1A inh 0, D2 ag -6.4, Six1-Eya2 blk 10, gsp antag 3% and D2 potentiator -26.
Screening COC(=O)c1c(=O)n(O)c2ccc(OC)cc2[n+]1[O-] returned gsp agonist inconclusive, CtBP-E1A inh -1, D2 ag -1.7, Six1-Eya2 blk -5, gsp antag -7% and D2 potentiator -12.
`O=[N+]([O-])c1ccc(Cl)c2c1C1C=CCC1C(c1ccccn1)N2` (stereo not given) gave gsp agonist -4%[15.4 µM], CtBP-E1A inh -22, D2 ag inconclusive, Six1-Eya2 blk inconclusive, gsp antag -12% and D2 potentiator 24.
`Cc1cc(CN(C)C)c(O)c(C2(C)CCCCC2)c1` gave gsp agonist 18%, CtBP-E1A inh -1, D2 ag -1.1, Six1-Eya2 blk -3, gsp antag 0% and D2 potentiator -19.
For C=CCOc1ccc(C2NC(=O)c3ccccc3O2)cc1OC (stereo not given) the results were gsp agonist -70%[inhibitor], CtBP-E1A inh -8, D2 ag -2.2, Six1-Eya2 blk 3 and D2 potentiator -23.
Screening S=C(Nc1ccc(Cl)cc1Cl)N1CCCCC1 returned gsp agonist 19%, CtBP-E1A inh 5, D2 ag -0.3, Six1-Eya2 blk 2, gsp antag 9% and D2 potentiator 5.

3 entries picked at random from those above:
`CCOc1c(C)cc2[nH]c(CCC(=O)O)nc2c1C` gave gsp agonist -19%, CtBP-E1A inh 0, D2 ag -0.7, Six1-Eya2 blk 9, gsp antag 10% and D2 potentiator -2.
Screening COC(=O)c1c(=O)n(O)c2ccc(OC)cc2[n+]1[O-] returned gsp agonist inconclusive, CtBP-E1A inh -1, D2 ag -1.7, Six1-Eya2 blk -5, gsp antag -7% and D2 potentiator -12.
`O=C(CSc1nccc(=O)[nH]1)Nc1ccc(S(=O)(=O)N2CCOCC2)cc1` gave gsp agonist 2%, CtBP-E1A inh 7, D2 ag -0.7, Six1-Eya2 blk 5, gsp antag 2% and D2 potentiator -2.
